Assay outcomes: PubChem, several laboratories
YopH inh – YopH tyrosine phosphatase inhibitors, primary screen, biochemical, fluorescence Ex485/Em525 | inhibition, %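 (about 10 µM by stock and volumes)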 | hit rate 0.16% among 140,000 | YopH tyrosine phosphatase [Yersinia enterocolitica];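 active = inhibition of 50% or more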;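 note: controls were vehicle for no effect and minimum signal wells for full effect; inactives centre near -20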
RecA intein inh – Mtb RecA intein splicing inhibitors, primary screen, biochemical, fluorescence, HTS | cell-free RecA intein splicing | inhibition, %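 (about 9 µM by stock and volumes)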 | Protein RecA (Mycobacterium tuberculosis (strain ATCC 25618 / H37Rv)), P9WHJ3 | hit rate 0.75% among 290,000; in the data active = inhibition above about 30%;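 note: 0% = vehicle wells and 100% = reference inhibitor control wells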
Target sequence (P9WHJ3 whole entry, looked up): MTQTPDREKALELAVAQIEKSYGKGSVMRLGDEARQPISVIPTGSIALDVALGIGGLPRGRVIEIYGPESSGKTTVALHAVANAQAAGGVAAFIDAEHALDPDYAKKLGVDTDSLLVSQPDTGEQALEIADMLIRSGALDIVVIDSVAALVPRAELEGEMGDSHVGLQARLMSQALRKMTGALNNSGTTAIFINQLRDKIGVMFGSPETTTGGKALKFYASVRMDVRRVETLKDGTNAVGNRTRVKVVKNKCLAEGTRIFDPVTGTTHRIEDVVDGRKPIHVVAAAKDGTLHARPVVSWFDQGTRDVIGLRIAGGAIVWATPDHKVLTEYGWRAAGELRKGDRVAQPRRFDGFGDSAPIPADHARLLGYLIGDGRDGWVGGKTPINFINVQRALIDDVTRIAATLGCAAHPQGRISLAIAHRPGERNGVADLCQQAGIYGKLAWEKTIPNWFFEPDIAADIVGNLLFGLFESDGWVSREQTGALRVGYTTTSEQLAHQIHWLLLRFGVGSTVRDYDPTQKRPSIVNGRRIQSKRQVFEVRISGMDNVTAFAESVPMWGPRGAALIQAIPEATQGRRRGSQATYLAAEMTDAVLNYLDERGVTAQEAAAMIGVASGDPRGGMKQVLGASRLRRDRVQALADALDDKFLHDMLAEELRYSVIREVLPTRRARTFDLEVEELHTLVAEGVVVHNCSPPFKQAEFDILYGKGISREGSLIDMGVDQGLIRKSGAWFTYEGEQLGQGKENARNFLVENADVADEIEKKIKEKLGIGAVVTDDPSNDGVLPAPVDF
Mtb H37Rv – M. tuberculosis H37Rv growth inhibitors, H37Rv strain (AID 1626) | M. tuberculosis H37Rv growth inhibition; higher % means a stronger effect | inhibition, % at 10 µM; hits with a dose series show IC50 in µM | hit rate 0.95% among 220,000;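 active = confirmed in a dose series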;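 note: bacteria incubated seven days before Alamar blue readout; 0% = bacteria only wells and 100% = bacteria with antibiotic wells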
Mtb bLac sens – beta-lactam sensitization of Mtb H37Rv, H37Rv | M. tuberculosis H37Rv growth with meropenem, percent inhibition; hits of this screen are not shown here | inhibition, % at 25 µM | hit rate 0.27% among 330,000;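 active = about 74% or more and at least 40 points above the plate without the antibiotic, then above 30% in a dose series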;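 note: growth measured after seven days incubation then overnight dye step; 0% = bacteria only wells and 100% = bacteria with antibiotic; twin plates without the antibiotic show which effects depend on it; some results filed as inactive read as strong as hits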
Arbovirus anti – antivirals against arbovirus infection, primary screen, cell-based, full library, 10K replicate subset; arbovirus infection cell-based antiviral screen; inhibition, % at 10 µM; hit rate 0.37% among 200,000;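 active = inhibition from about 30%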;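 note: bluetongue infection of BSR cells; cell survival read as ATP light after 72 h; 0% = infected wells without compound and 100% = uninfected wells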
Arbovirus anti repeat – also measured in Arbovirus anti; calls as there; inhibition, %; measured here: 10K subset replicate screen; many hits read low in the repeat;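 first of two repeat runs on a subset; 0% = infected and 100% = uninfected wells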
* marks the source's active call; other numbers are inactive results; . = no result given; & = joins results of further samples. A portion of the library; the hit share may differ from the screen's.

SMILES | YopH inh | RecA intein inh | Mtb H37Rv | Mtb bLac sens | Arbovirus anti | others
COc1cc(CC(=O)OCC(=O)Nc2ccc3c(c2)OCO3)cc(OC)c1OC | . | 0.3 | -12% | -4 | 2
CC(=C/C(=O)O)/C(=C/c1ccccc1)C(=O)O | -29 | 2.8 | -14% | -2 | -6
CC(=O)Nc1ccc(NC(=O)C23CC4CC(C2)CC(n2cnc(Br)n2)(C4)C3)cc1 | . | 2.3 | -7% | 1 | -1
CN(/N=C/c1ccccc1Cl)c1ncc(Cl)cc1C(F)(F)F | . | 6.5 | -4% | -3 | .
CC(=O)c1cccc(OCc2cc(C(=O)N3CCC(N4CCCCC4)CC3)no2)c1 | . | 0.0 | . | 11 | .
CCOc1ccc(-n2c(Cc3cc(=O)[nH]c(=O)[nH]3)nnc2SCC(N)=O)cc1 | -7 | -1.1 | -6% | -6 | -5
COc1cc(C(=O)NCCC(=O)NC2CCCCCCC2)cc(OC)c1OC | -33 | 0.0 | -4% | 1 | 6
CC(OC(=O)C1CCC(=O)N1)C(=O)Nc1cc(Cl)cc(Cl)c1 (stereo unspecified) | 1 | 1.8 | 5% | -2 | -5
Cc1cc(S(=O)(=O)N2CCN(c3ccc(F)cc3)CC2)ccc1-n1cnnn1 | . | 0.4 | . | -2 | .
COC(=O)c1cc(C(=O)OC)cc(S(=O)(=O)Nc2ccc(Cl)c(N)c2)c1 | -27 | 3.8 | 3% | -15 | 0
Cn1c(=O)c2c(nc(SCCN3CCOCC3)n2C)n(C)c1=O | . | -8.0 | . | 6 | .
COc1ccccc1C(=O)N/N=C(\C)CC(=O)Nc1ccccc1NC(C)=O | . | 0.7 | . | 1 | .
Cc1ccc([N+](=O)[O-])c(OCC(O)CNC(C)(C)C)c1 (stereo unspecified) | . | 1.0 | -5% | -13 | .
O=C1c2ccccc2C(=O)N1CCc1nc(-c2ccc(Cl)cc2)no1 | 18 | 1.2 | -3% | -21 | 6
CN(C(=O)CSc1ncccc1C(=O)O)c1ccccc1 | -43 | -0.8 | -15% | -10 | 3
Nc1c(-c2ccccc2)cnn1C1CCS(=O)(=O)C1 (stereo unspecified) | -16 | -1.4 | -11% | -5 | 4
CCCCCc1nnc(NC(=O)C2CCCO2)s1 (stereo unspecified) | -18 | 0.5 | 2% | -3 | 14
COc1ccc(NC(=O)C(c2ccc(OC)cc2)N(C)C(=O)CC2NC(=O)NC2=O)cc1 (stereo unspecified) | -15 | -1.5 | 3% | 8 | -6
COc1ccc(CSc2nc(C)cc(=O)[nH]2)cc1 | -38 | . | 0% | -8 | 3
O=C(Cn1ncc2c(=O)oc3ccccc3c21)NCC1COc2ccccc2O1 (stereo unspecified) | -2 | 1.3 | -5% | -1 | 8 | Arbovirus anti repeat=2
C[C@@H]1O[C@@H](O[C@H]2C[C@@H](O)[C@]3(CO)[C@H]4[C@H](O)C[C@]5(C)[C@@H](C6=CC(=O)OC6)CC[C@]5(O)[C@@H]4CC[C@]3(O)C2)[C@H](O)[C@H](O)[C@H]1O | -24 | -0.4 | 0% | -1&-2 | 6
Cc1nc2ccc3nc(NC(=O)c4ccc(S(=O)(=O)N5CCOCC5)cc4)sc3c2s1 | -45 | . | -4% | 3 | 7
COc1cc(C(=O)OCC(=O)Nc2cc(C)on2)c([N+](=O)[O-])cc1OC | . | 0.4 | -6% | 2 | 1
Cc1cc(Br)c(S(=O)(=O)n2nnc3ccccc32)cc1C | 17 | -0.9 | 7% | 3 | 8
COc1cccc(-c2cc(C(=O)NCc3cccs3)no2)c1 | . | 0.8 | -4% | -1 | .
Cc1cc(Cl)c2oc(C(=O)N(C)Cc3ccon3)c(C)c2c1 | . | 1.3 | . | 33 | .
COc1ccc(S(=O)(=O)N2CCC(NC(=O)Nc3ccc(C)cc3)CC2)cc1 | -1 | -2.2 | 1% | 8 | 4
O=C(c1cccc(F)c1)N1CCN(C(=O)c2cc(-c3ccc(Cl)cc3Cl)on2)CC1 | -63 | 7.2 | 25% | 9 | -10
COc1cc(C)c(Br)cc1S(=O)(=O)N1CCCC1 | -4 | 1.8 | -6% | -5 | 7
O=C(CCC1CCCN(C(=O)C2(c3ccccc3)CC2)C1)N1CCN(c2ccccn2)CC1 (stereo unspecified) | . | -3.1 | -9% | 4 | 8
CCc1ccc(C(C)NC(=O)c2ccncc2)cc1 (stereo unspecified) | . | -0.1 | . | 7 | .
COc1cnc(SCc2ccc(Cl)cc2)nc1Cl | -42 | 28 | -4% | 2 | 9
Cc1ccn2c(-c3n[nH]c(=S)n3Cc3ccccc3)c(C)nc2c1 | -6 | -0.6 | 1% | -7 | 0
COc1ccc(C2/C(=C(\O)c3cccc(OC)c3)C(=O)C(=O)N2c2ccccn2)cc1 (stereo unspecified) | -25 | 0.5 | -2% | 3 | 8
O=C1CN(C(=O)C2CCC(=O)N(CCc3ccc(Cl)cc3)C2)CCN1 (stereo unspecified) | . | 1.4 | . | 7 | .
COc1cccc(N2CCN(C(=O)CCn3c(=S)[nH]c4cc5c(cc4c3=O)OCO5)CC2)c1 | -4 | . | -2% | . | -6

Random excerpt: seven records from the list.
SMILES | YopH inh | RecA intein inh | Mtb H37Rv | Mtb bLac sens | Arbovirus anti | others
COc1cccc(-c2cc(C(=O)NCc3cccs3)no2)c1 | . | 0.8 | -4% | -1 | .
COc1cnc(SCc2ccc(Cl)cc2)nc1Cl | -42 | 28 | -4% | 2 | 9
O=C(CCC1CCCN(C(=O)C2(c3ccccc3)CC2)C1)N1CCN(c2ccccn2)CC1 (stereo unspecified) | . | -3.1 | -9% | 4 | 8
O=C(c1cccc(F)c1)N1CCN(C(=O)c2cc(-c3ccc(Cl)cc3Cl)on2)CC1 | -63 | 7.2 | 25% | 9 | -10
COc1cc(C)c(Br)cc1S(=O)(=O)N1CCCC1 | -4 | 1.8 | -6% | -5 | 7
Cc1ccn2c(-c3n[nH]c(=S)n3Cc3ccccc3)c(C)nc2c1 | -6 | -0.6 | 1% | -7 | 0
CCc1ccc(C(C)NC(=O)c2ccncc2)cc1 (stereo unspecified) | . | -0.1 | . | 7 | .

Next part:
SMILES | YopH inh | RecA intein inh | Mtb H37Rv | Mtb bLac sens | Arbovirus anti | others
Cc1ccc(CNC(=O)[C@H](C)NC(=O)C2CCN(C(=O)[C@@H]3CCCN3C(=O)OC(C)(C)C)CC2)cc1 | . | -0.2 | . | -3 | .
Cc1cc(N2CCN(C)CC2)nc2ccccc12 | . | -1.6 | . | -7 | .
O=c1c2ccccc2[nH]c(=S)n1CCN1CCCCC1 | . | -1.0 | . | -5 | .
CN(C)c1cc(-c2ccccc2)nc(N)n1 | -25 | 0.0 | 4% | 0 | -11 | Arbovirus anti repeat=-13
O=C(Cn1nnc(-c2cccc(C(F)(F)F)c2)n1)NC(=O)NCc1ccco1 | -3 | -1.1 | -16% | -2 | 6
O=C(NCCSc1c[nH]c2ccccc12)c1ccc2c(c1)OCO2 | . | 5.1 | 12% | 4 | -9
Cc1ccc(CN(C)CC(=O)NC(C)c2ccccc2)cc1 (stereo unspecified) | . | -0.1 | . | 0 | .
O=C(N/C(=C\c1ccc(-c2ccccc2)o1)C(=O)N1CCOCC1)c1ccccc1 | . | . | 2% | . | -12
O=C(O)c1cc(/C=C/c2ccc(N3CCOCC3)c([N+](=O)[O-])c2)nc2ccccc12 | . | 3.3 | 2% | 0 | .
CCOc1ccc(C(C)=O)cc1CN1c2ccc(S(N)(=O)=O)cc2CC1C (stereo unspecified) | . | 1.5 | . | 6 | .
CCOC(=O)C1=C(C)N=C2c3ccccc3C(=O)C2C1c1ccc(Cl)cc1 (stereo unspecified) | -32 | 1.7 | 7% | 8 | -1
Cc1ccc(C(=O)C2=C(O)C(=O)N(Cc3cccnc3)C2c2ccc(Cl)cc2)o1 (stereo unspecified) | . | 2.3 | . | 2 | .
COC(=O)c1ccccc1NC(=O)c1cccc(NC(=O)C(C)C)c1 | . | 1.3 | 13% | 1 | -1
COc1ccc(-c2nc(CN3CCN(C(=O)c4ccco4)CC3)c(C)o2)c(F)c1 | . | -3.9 | . | -3 | .
CCOC(CCNC(=O)c1cn(-c2cccc(C)n2)cn1)OCC | -35 | -2.3 | -4% | -14 | -1
Fc1cccc(Cl)c1CSc1ccc2nnc(-c3ccccn3)n2n1 | . | -3.0 | 5% | 6 | 2
COc1ccc(-c2noc(-c3ccc(Br)o3)n2)cc1 | . | -0.3 | 0% | -7 | .
CCn1c2ccccc2c2nnc(SCCN3CCCCC3)nc21 | . | -0.9 | . | 31 | .
CNC(=O)/C=C/c1cccc(C(F)(F)F)c1 | -14 | -0.1 | 4% | 6 | -13
Cn1nnc(NC(=S)NC(=O)/C=C/c2ccco2)n1 | . | -4.0 | 2% | -4 | .
CC(=O)N1N=C(c2cccs2)CC1c1ccc(C)o1 (stereo unspecified) | . | 0.3 | 8% | 0 | -3
CC[C@H](C)Cc1cn([C@@H](CCCCN)C(=O)NCCCCCCCCCCC(=O)N2CCNCC2)nn1 | . | -0.2 | . | 1 | .
Cc1cc(/C=C2\SC(=S)NC2=O)c(C)n1-c1ccccc1 | . | 6.9 | 4% | 6 | .
COc1cccc(C(=O)N2CCN=C2SCc2cccnc2)c1OC | -53 | . | -9% | 2 | 3
Cc1ccc(-c2nnn(CC(=O)NC3CC4CCC3C4)n2)cc1 (stereo unspecified) | -8 | -0.5 | 12% | 2 | -1
O=C(COC(=O)c1ccccc1NC(=O)C1CC1)c1ccc2c(c1)OCCO2 | -33 | 0.9 | 2% | 7 | 6
O=C(CNC(=O)c1ccco1)N/N=C/c1cc(Br)ccc1O | . | -2.7 | . | 2 | .
Cc1cccc(NC(=O)CN2C(=O)CCSc3ccc(S(=O)(=O)N4CCOCC4)cc32)c1C | . | -0.1 | . | 6 | .
O=C(Nc1nnc(SCC(=O)N2CCCCC2)s1)c1ccccc1F | . | -0.7 | . | 0 | .
CCC(C)(C(=O)Nc1ccc(OC)cc1)N(C)C(=O)Cn1nnnc1N (stereo unspecified) | . | -1.7 | . | 4 | .
O=C1CCc2cc(S(=O)(=O)N3CCCC3C(=O)NC3CCCCCCC3)ccc2N1 (stereo unspecified) | -44 | -1.3 | -2% | 7 | -2
Cn1c(Cn2c(=O)sc3ccccc32)nnc1SCC(=O)NCc1ccccc1Cl | -19 | -0.4 | . | 1 | 0 | Arbovirus anti repeat=-2
Cn1c(=O)c2c(nc(N3CCCCCC3)n2CC(=O)c2ccccc2)n(C)c1=O | -8 | . | 4% | -4 | 5
Cc1ccc(C(=O)Oc2ccccc2N2C(=O)C3C4CCC(C4)C3C2=O)cc1 (stereo unspecified) | -16 | 2.1 | -1% | -4 | 4
Cc1ccc(CSc2nnc(-c3ccncc3)n2N)cc1 | . | -1.2 | 15% | 8 | .
CCN(CC)CCOC(=O)c1ccc(NC(=O)c2cccc(C)c2[N+](=O)[O-])cc1 | . | 7.6 | -8% | 1 | -1

The closing 2 records of the part before open the next one:
SMILES | YopH inh | RecA intein inh | Mtb H37Rv | Mtb bLac sens | Arbovirus anti | others
Cc1ccc(CSc2nnc(-c3ccncc3)n2N)cc1 | . | -1.2 | 15% | 8 | .
CCN(CC)CCOC(=O)c1ccc(NC(=O)c2cccc(C)c2[N+](=O)[O-])cc1 | . | 7.6 | -8% | 1 | -1
Cc1ccc(C(=O)NCC(=O)OC(C)C(=O)NC2CCCc3ccccc32)cc1 (stereo unspecified) | . | 3.0 | . | -12 | .
CC(/C=N/NC(=O)Cn1cnc2c1c(=O)n(C)c(=O)n2C)=C\c1ccccc1 | -10 | 0.2 | -5% | 0 | -8
COc1ccc(C2=NOC(C(=O)Nc3ccc4c(c3)OCO4)C2)cc1OC (stereo unspecified) | . | . | -2% | 1 | -25
Cc1ccc(SC(C)c2nc(-c3cccnc3)no2)cc1 (stereo unspecified) | 38 | 4.8 | 4% | 1 | -3
C=CCOc1ccc(CNCC2CCCO2)cc1 (stereo unspecified) | . | -0.6 | . | 0 | .
CCCCn1c(=N)n(CC(O)COc2ccc(C)cc2)c2ccccc21 (stereo unspecified) | -33 | 7.4 | 10% | 19 | -28
Cn1c(SC2CCCCC2=O)nnc1-c1ccncc1 (stereo unspecified) | -11 | -1.6 | -8% | 1 | -1
CC(C)Cn1cc(C(=O)NCCCN2CCCC2=O)c2c3ccccc3n(C)c2c1=O | 13 | 7.3 | -7% | 2 | -6
COCCNC(=S)N1CCN(c2ccc(Cl)cc2)CC1 | . | -0.9 | 0% | 3 | 14
O=C(NC1=NCCS1)c1ccc(Cl)c(Cl)c1 | . | -5.6 | . | -1 | .
O=C(COc1ccccc1)NC(Cc1c[nH]c2ccccc12)C(=O)O (stereo unspecified) | -12 | 1.7 | -4% | 0 | 8
Cc1[nH]nc2c1C(c1ccccc1F)CC(=O)N2 (stereo unspecified) | -35 | 0.8 | -5% | -1 | 1
